VDR inhibitor = inhibitors of human vitamin D receptor | P11473 | VDR-SRC2-3 peptide fluorescence polarization, 2 h | Potency, µM, without a hit: max response, negative = inhibition, hits mostly inhibitors | 0.93% of 400,000 active; active = well fitted inhibition curve with a large enough effect; inconclusive = small, poorly fitted or top-dose-only effect, or another doubt; inactive = no such curve, though single readings can be large or run the other way; note: series mostly up to about 120 µM
Target sequence (P11473 whole entry, looked up): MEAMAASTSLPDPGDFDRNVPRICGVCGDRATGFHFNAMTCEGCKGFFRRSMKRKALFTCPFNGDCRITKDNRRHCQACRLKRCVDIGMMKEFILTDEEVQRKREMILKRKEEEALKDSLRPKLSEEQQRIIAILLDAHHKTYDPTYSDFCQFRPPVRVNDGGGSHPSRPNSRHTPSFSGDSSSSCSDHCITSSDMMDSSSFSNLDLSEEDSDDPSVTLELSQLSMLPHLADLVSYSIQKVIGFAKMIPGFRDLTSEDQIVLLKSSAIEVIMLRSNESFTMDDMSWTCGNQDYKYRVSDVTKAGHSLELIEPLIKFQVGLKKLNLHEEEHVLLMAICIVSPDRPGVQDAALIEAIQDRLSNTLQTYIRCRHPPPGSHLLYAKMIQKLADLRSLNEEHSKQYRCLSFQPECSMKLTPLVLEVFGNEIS
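Inhibition of the VDR/SRC2-3 peptide interaction is quantified by fluorescence polarization. Compounds (23 nl, pintool) incubate with the reagents for 2 hours at ambient room temperature.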
The depositor's hits bear a star; ? = inconclusive; & = joins results of further samples; [ ] = dose if it differs, or a comment. % is set by controls: 0 for no effect and ±100 for the full control effect; potency is the fitted concentration of half-maximal effect. A portion of the library; the hit share may differ from the screen's.

structure	VDR inhibitor
COC(=O)c1cc(OC)ccc1-c1ccc(OC)cc1	22.2%
Cc1ccc(CNC(=O)COC(=O)c2ccc(Br)o2)cc1	-3.2%
CCCCN(C)C(=O)CSc1nc(NCc2ccc(OC)cc2)c2ccccc2n1	6.0%
CC(C)NC(=O)C(c1ccccc1)N1Cc2ccccc2C1=O (centres undefined)	7.8%
C/C(=N\Nc1ccc(C)c(Cl)c1)c1cccnc1	-10.1%
c1ccc2c(c1)nnn2Cc1nnc2sc(-c3ccc4c(c3)OCCO4)nn12	8.3%
O=C(Cn1nnc(N2CCCC2)n1)N/N=C/c1ccc(Cl)cc1	-5.9%
Cc1cc(OCCCn2ccnc2)ccc1[N+](=O)[O-]	18.0%
Cc1ccc(NC(=O)C2CCC(CNC(=O)[C@@H]3Cc4ccccc4CN3)CC2)c(C)c1 (some centres undefined)	-10.6%
c1ccc(CNc2nc(N3CCN(Cc4ccccc4)CC3)nc3ccccc23)cc1	2.3%
COc1ccc(CNC(=O)CSc2ncnc3nc[nH]c23)cc1	-9.3%
COCCn1c(COc2ccc(Cl)cc2)nnc1SCC(N)=O	-28.5%
Cc1cc(C(=O)NC(C)C2CCCO2)no1 (centres undefined)	-7.2%
O=C(N/N=C(\c1ccccc1)c1cccnc1)c1cccc(F)c1	3.3%
COc1ccc2c(c1)c(=O)c(C(=O)O)c(-c1ccc3c(c1)OCO3)n2C	3.4%
Cn1c(=O)c2cn(Cc3ccc(Cl)cc3)cc2n(C)c1=O	30.3%[activator]
Cc1ccc(OCC(=O)Nc2ccc3c(c2)C(=O)N(CCC(=O)O)C3=O)cc1	7.4%
c1ccc(CN2CCCC3(CCCN(Cc4nc(COc5ccccc5)no4)C3)C2)cc1 (centres undefined)	-9.3%
COc1ccc(Cl)cc1C(=O)NNC(=S)NC1CCCCC1	6.0%
CCNc1nc(NC(C)C)nc(NS(=O)(=O)c2ccc(Cl)cc2)n1	-7.5%
O=C(CCC(=O)N1CCN(S(=O)(=O)c2ccc3ccccc3c2)CC1)Nc1cc(Cl)cc(Cl)c1	3.0%
Cc1coc(C)c1C(=O)CC1(O)C(=O)N(CCc2ccccc2)c2ccccc21 (centres undefined)	-14.5%
COc1ccc(CCNC(=O)c2cc(C(=O)c3cc(Cl)ccc3O)cn(CCc3ccc(OC)cc3)c2=O)cc1	-13.2%
CCN(CC)S(=O)(=O)c1ccc2c(c1)c(=O)c(C(=O)NCCOC)cn2C	-2.0%
CCOC(=O)C1(CCOc2ccccc2)CCN(Cc2ccccc2O)CC1	-3.0%
COc1ccc(C(=O)Nc2ccc(NC(=O)c3cnccn3)cn2)cc1	4.5%
O=C(/C=C/c1cccc([N+](=O)[O-])c1)Nn1c(-c2ccccc2F)nc2ccccc2c1=O	-2.3%
COc1cccc(N(C(=O)Cn2nnc3ccccc32)C(C(=O)NCc2ccco2)c2cccnc2)c1 (centres undefined)	10.5%
CCN=C1SC(C(=O)Nc2ccc(Cl)c(Cl)c2)CC(=O)N1CC (centres undefined)	7.1%
COc1ccc(CNC(=O)COC(=O)c2ccccn2)cc1	-11.8%
Cc1nn(-c2ccccc2)nc1C(=O)OCC(=O)N1CCCCC1C (centres undefined)	-0.6%
COCCNC(=O)c1c(N)n(-c2ccccc2)c2nc3ccccc3nc12	-5.0%
CCc1ccc(OCC(=O)Nc2ccc(S(=O)(=O)N3CCCC3)cc2)c(Br)c1	-6.9%
COC(=O)c1ccc(Cl)cc1NC(=O)Nc1nnc(N(C)C2CCCCC2)s1	11.2%
COc1ccc(-c2cc(C)no2)cc1S(=O)(=O)N1CCOc2ccc(C)cc21	0.3%
Cc1ccc(/C=C(\C#N)C(=O)N2CCCC2)c(C)c1	-29.9%
CC(=O)N1N=C(c2cccs2)CC1c1ccco1 (centres undefined)	13.3%
Cc1c(N=NC2=C(O)CCCC2=O)c(=O)n(-c2ccccc2)n1C	1.9%
O=C(N/N=C/c1ccc(O)cc1)c1[nH]c2ccc(Br)cc2c1-c1ccccc1	4.7%
CCCn1c2ccccc2c2cnn(CC(=O)NCCCN3CCCC(C)C3)c(=O)c21 (centres undefined)	1.4%
CCc1ccc(OCC(=O)NC(C)(C)C)cc1	-10.1%
CCOc1ccc(OCC)c(NC(=O)CN2CCN(c3cccc(C)c3)CC2)c1	4.0%
CC(C)(C)CC(=O)Nc1cc2c3c(c1)CC(=O)N3CCC2	14.8%
COc1cc(/C=C2\C(=N)N3N=C(S(C)(=O)=O)SC3=NC2=O)cc(OC)c1OCCOc1ccc(C)cc1	?
Cn1c(N)c(S(=O)(=O)N2CCN(c3ccccc3Cl)CC2)c(=O)n(C)c1=O	2.8%
COCc1cc(=O)[nH]c2cc(NC(=O)C3CC3)c(C)cc12	-11.1%
CC(=O)c1c(C)[nH]c(C(=O)COc2cc(C)cc(C)c2)c1C	-6.6%
COc1cc(/C=N/NC(=O)COc2ccc(C)cc2)ccc1OC(=O)c1cccs1	0.1%
CC(CN1CCCC1)OC(=O)c1ccc(Cl)cc1 (centres undefined)	8.7%
NC(=O)c1c(NC(=O)CN2C(=O)CCC2=O)sc2c1CCCCC2	-24.4%
COc1cccc(NC(=O)c2cc(OC)c(OC)c(OC)c2Br)c1	10.6%
CCOc1ccccc1OCCCC(=O)N(C)CC(=O)Nc1cc(C)ccc1C	-3.9%
CCCN1CN(c2ccccc2)C(=S)N(c2ccccc2)C1	0.8%
CC(C)C(OC(=O)c1nsc(Cl)c1Cl)C(=O)NC(C)(C)C (centres undefined)	-19.7%
c1ccc(-c2nnnc3ccccc23)cc1	-12.9%
COc1cc(OC)c(N(C)C(=O)c2sc3nc4n(c(=O)c3c2C)CCCC4)cc1Cl	10.2%
CSc1ncccc1C(=O)OC(C)C(=O)Nc1cccc(S(=O)(=O)N2CCOCC2)c1 (centres undefined)	-9.0%
CCOc1ccccc1CNC(=O)CSc1nnc(C)c2c(C)n(-c3ccccc3)nc12	9.7%
CCN(CC1COc2ccccc2O1)C(=S)Nc1ccccc1 (centres undefined)	-7.0%
CCCCn1c(N)c(N(CCOC)C(=O)Cn2c(=O)cnc3ccccc32)c(=O)[nH]c1=O	1.6%

Additional results
SMILES,VDR inhibitor
COc1cc(C2N(C)CCC3(OCCO3)C2(C)C)cc(OC)c1OC (centres undefined),-10.7%
COC(=O)c1nc2ccc(C)cn2c1F,17.4%
Cc1ccccc1-c1noc(N)c1C#N,-0.7%
COc1c2c(c(CCC(=O)O)c3c1C=CC(C)(C)O3)OC(C)(C)C=C2,?
COc1ccc(NC(=O)CNC(=O)Cn2c(C)cc3ccccc3c2=O)cc1OC,3.9%&-6.6%
CC1CCC(NC(=O)C2CCN(C(=O)Nc3ccccc3)CC2)CC1 (centres undefined),-4.6%
CCCCNC(=O)CN1C(=O)NC2(CCCc3ccccc32)C1=O (centres undefined),7.7%
Cc1ccccc1NC(=O)N1CCN(c2ncccn2)CC1,-5.2%
COc1c(Cl)cnn(-c2ccc(Cl)c(Cl)c2)c1=O,-21.4%
Cn1c(Cn2nnc3ccccc32)nnc1SCC(=O)c1ccc(F)cc1,-24.6%
Oc1c(C(c2cccc(F)c2)N2CCN(Cc3ccccc3)CC2)sc2ncnn12 (centres undefined),4.2%
CCc1cc2c(=O)[nH]c(-c3ccccn3)nc2s1,-22.0%
COC(=O)c1ccc(C(=O)OC)c(NC(=S)N2CCCC2)c1,7.8%
CC(C)(C)NC(=O)CSc1nc2ccc(NC(=O)CSc3nnnn3Cc3ccccc3)cc2s1,15.8%
O=C(CSc1nccn1Cc1ccco1)Nc1ccc(OC(F)(F)F)cc1,13.1%
CN1CCc2c(sc(NC(=O)Cc3ccccc3)c2C(N)=O)C1,-12.0%
Cc1ccc(-n2c(C)cc(C(=O)COc3c(CO)cc(F)cc3CO)c2C)cc1C,3.0%
CC(=O)NC(Cc1ccccc1C)C(=O)NC1CCN(C(=O)c2cccc(C)c2)CC1 (centres undefined),1.2%
Cc1noc(C)c1C(=O)NCCc1c(C)[nH]c2ccccc12,0.6%
CCN1/C(=C\C(C)=O)Sc2ccc(OC)cc21,5.5%
CCNc1nc(NOC)nc(OCC#N)n1,2.3%
O=C(O)CN1C(=O)c2cccc(Oc3ccc(Cl)cc3)c2C1=O,5.4%
Cc1c2cnn(CC(=O)NCCc3ccccc3)c(=O)c2c(C)n1Cc1ccccc1Cl,3.5%
S=C(Nc1ccc(Cl)cc1)NC1CC2CCCC(C1)N2C1CC1 (centres undefined),12.7%
CC1(C(=O)N(CC(=O)NC2CCCC2)C2CCCC2)CC(=O)N=C2C=CC=CN21 (centres undefined),1.0%
Cc1ccccc1C1=CCN(c2ncc(NC(=O)c3ccc(Cl)cc3)cc2C(=O)O)CC1,-7.5%
Cc1ccc(OCC(=O)Nc2cccc3ccc(C)nc23)c(C)c1,-11.4%
Cn1c(C(=O)N2CCc3ccccc3C2)cc2c(=O)n3ccccc3nc21,31.1%[activator]
O=[N+]([O-])c1ccc(S(=O)(=O)N2CCN(C3CCN(Cc4ccccc4)CC3)CC2)cc1,-12.7%
OC1C=CSc2nc3ccccc3n21 (centres undefined),5.3%
COc1ccc(C)cc1NS(=O)(=O)c1ccc(-c2cnc(C3CC3)o2)cc1,2.9%&16.7%
Cc1cccc(NC(=O)C(=O)C2C(=O)Nc3ccccc32)c1 (centres undefined),7.4%
Cc1ccc(NC(=O)NC(=O)CN2C(=O)NC3(CCCCCCC3)C2=O)c(C)c1,-12.5%
CCn1c(CNc2ccc(Cl)cc2)nnc1SCC(=O)NCc1ccccc1,7.5%
CSc1nc2nc(C)cc(-c3ccccc3)n2n1,-1.8%
O=C(NCc1ccccc1CN1CCCC1)c1cccc(S(=O)(=O)Nc2ccc(F)cc2)c1,-5.9%
O=C(O)COc1ccccc1/C=N/NC(=O)COc1ccc(-c2ccccc2)cc1,11.1%
N#CCSc1nnc(C2CCCCC2)n1-c1ccccc1,-7.2%
O=[N+]([O-])c1ccc2nc(-c3ccc(Cl)cc3)[nH]c2c1,-13.8%
Cc1cc(C)cc(C(=O)NC(CC(N)=O)c2ccc(NCCN3CCOCC3)c([N+](=O)[O-])c2)c1 (centres undefined),-2.2%
Cc1cccc(N2CC(C(=O)Nc3nnc(SCCC4OCCO4)s3)CC2=O)c1 (centres undefined),-15.5%
COc1ccc(OC)c(CN2CCC(CO)(CCOc3ccccc3)CC2)c1,14.1%
Cc1noc(C)c1C(=O)N1CCN(c2cccc(Cl)c2)CC1,-2.9%
Cc1nn2c(-c3cccc(NC(=O)CN4CCOCC4)c3)nnc2c2ccccc12,2.3%
Cc1cccn2c(CNCC3(c4ccccc4)CCCC3)c(C(=O)N3CCOCC3)nc12,5.5%

Sorted by SMILES length (smallest number first): part of the list above
SMILES,VDR inhibitor
Cc1cccc(NC(=O)C(=O)C2C(=O)Nc3ccccc32)c1 (centres undefined),7.4%
CCn1c(CNc2ccc(Cl)cc2)nnc1SCC(=O)NCc1ccccc1,7.5%
Cc1cccc(N2CC(C(=O)Nc3nnc(SCCC4OCCO4)s3)CC2=O)c1 (centres undefined),-15.5%
COc1ccc(C)cc1NS(=O)(=O)c1ccc(-c2cnc(C3CC3)o2)cc1,2.9%&16.7%
Cc1ccc(NC(=O)NC(=O)CN2C(=O)NC3(CCCCCCC3)C2=O)c(C)c1,-12.5%

Other entries
SMILES,VDR inhibitor
Cc1ccc(C2=[N+]([O-])C3(CCCCC3=O)N(O)C2(C)C)cc1 (centres undefined),7.4%
CSc1nc2ccc(NC(=O)c3ccccn3)cc2s1,8.0%
Cc1cc(C)cc(Nc2ncnc3onc(-c4ccc(F)cc4)c23)c1,11.6%
NC(=O)C1CCN(C(=O)c2ccccc2CCc2ccccc2)CC1,-0.9%
O=C(/C=C/c1cccnc1)c1ccc(NC(=O)c2cccc(Br)c2)cc1,-3.6%
CCOC(CNC(=O)C1CCN(S(=O)(=O)c2ccc3nc4c(c(C(=O)O)c3c2)CCCCC4)CC1)OCC,-2.3%
COc1ccc(C2SCC(=O)N2c2ccc(OC)cc2)cc1 (centres undefined),11.5%
O=C(CCS(=O)(=O)c1ccc2c(c1)NC(=O)CS2)NCc1ccccc1Cl,-21.6%
Cc1ccc2cc(C#N)c(SCC(=O)N3CCCC3)nc2c1,3.7%
CCCCC(C)(O)C/C=C/[C@H]1[C@H](O)CC(=O)[C@@H]1CCCCCCC(=O)O (some centres undefined),-0.6%&0.3%
Cc1ccc(C(=O)N/C(=C\c2ccco2)C(=O)N2CCCCC2)cc1,-15.3%
Cc1ccc(S(=O)(=O)N2CCN(S(=O)(=O)N3CCC(C)CC3)CC2)c(C)c1,14.2%
COc1cc(C2CC(=O)Nc3c2c(=O)nc2c(C)cccn32)cc(OC)c1OC (centres undefined),8.7%&-7.5%
CCCCOC(=O)c1ccc(NC(=O)C2(c3cccs3)CCOCC2)cc1,11.6%
CNc1nnc(-c2ccc(N(C)C)cc2)s1,8.3%

Sorted by the number under VDR inhibitor (high to low): 4 from the list above.
| structure | VDR inhibitor |
| --- | --- |
| CCCCOC(=O)c1ccc(NC(=O)C2(c3cccs3)CCOCC2)cc1 | 11.6% |
| COc1ccc(C2SCC(=O)N2c2ccc(OC)cc2)cc1 (centres undefined) | 11.5% |
| CNc1nnc(-c2ccc(N(C)C)cc2)s1 | 8.3% |
| NC(=O)C1CCN(C(=O)c2ccccc2CCc2ccccc2)CC1 | -0.9% |

Additional structures follow.
SMILES,VDR inhibitor
C=CCN1C(=O)c2cccc3c(Br)ccc(c23)C1=O,3.7%
COc1ccc(NC(C)C(=O)Nc2cccc(S(=O)(=O)N3CCOCC3)c2)cc1OC (centres undefined),10.6%
O=C(O)CSc1nc2ccc(NC(=O)COc3ccc(Cl)cc3)cc2s1,5.0%
COc1cc(-c2nc3ccc(C)cn3c2NCc2ccccc2)ccc1-c1cccc(Cl)c1,-17.1%
